GALR2 agonist: GALR2 (human) receptor agonism. O43603. GALR2-expressing cells, agonist activation read-out. activation, %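 (tested at 5 µM)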. 140,000 tested, 0.48% active;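 active = above mean plus 3 SD of all compounds, about 5% in these data, not always enough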;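 note: 0% = vehicle buffer wells and 100% = reference agonist at full effect; tested in CHO reporter cells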
PKD1 inh: PKD1 (human) kinase inhibition | inhibition, %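 (about 10 µM by stock and volumes)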 | 200,000 tested, 0.056% active | PKD1 kinase fluorescence polarization assay | AID 797 | Q15139;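 active = inhibition of 50% or more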;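 note: controls were vehicle for no effect and a reference inhibitor for full effect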
Target sequence (Q15139 whole entry, looked up): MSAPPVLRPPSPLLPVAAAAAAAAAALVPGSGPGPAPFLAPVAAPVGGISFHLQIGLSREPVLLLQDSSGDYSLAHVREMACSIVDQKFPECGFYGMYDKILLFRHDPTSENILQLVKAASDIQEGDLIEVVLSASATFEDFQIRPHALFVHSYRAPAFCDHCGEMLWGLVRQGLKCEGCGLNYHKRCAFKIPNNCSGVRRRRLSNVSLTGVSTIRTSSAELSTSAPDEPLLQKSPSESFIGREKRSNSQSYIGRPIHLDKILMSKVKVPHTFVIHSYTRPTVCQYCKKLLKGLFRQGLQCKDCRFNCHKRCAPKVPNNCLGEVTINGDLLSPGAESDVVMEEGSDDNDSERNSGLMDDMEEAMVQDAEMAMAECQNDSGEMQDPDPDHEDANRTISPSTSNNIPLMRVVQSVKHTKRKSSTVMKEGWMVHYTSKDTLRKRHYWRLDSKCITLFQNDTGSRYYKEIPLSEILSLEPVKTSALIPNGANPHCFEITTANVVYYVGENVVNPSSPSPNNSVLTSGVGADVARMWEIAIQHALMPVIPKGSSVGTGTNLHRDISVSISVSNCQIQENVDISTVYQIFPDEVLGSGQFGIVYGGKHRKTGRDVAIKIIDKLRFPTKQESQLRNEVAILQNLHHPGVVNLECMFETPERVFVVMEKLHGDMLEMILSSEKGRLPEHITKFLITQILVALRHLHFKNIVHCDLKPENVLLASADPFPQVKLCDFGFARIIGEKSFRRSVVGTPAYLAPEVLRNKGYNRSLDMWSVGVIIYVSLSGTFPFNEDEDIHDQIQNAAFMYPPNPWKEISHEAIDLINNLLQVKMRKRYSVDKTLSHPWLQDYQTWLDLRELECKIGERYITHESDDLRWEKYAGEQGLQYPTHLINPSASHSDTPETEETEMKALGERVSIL
HSV augment: HSV replication enhancement; HSV replication augmentation in cells, fold increase; maximum fold increase; 220,000 tested, 0.005% active; AID 1956;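 active = peak rise of 1.5-fold or more in the series; tested in PC3 cells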;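 note: first round at 10 µM; read as green reporter fluorescence; hits show the peak of a series up to 25 µM; 1 = signal of infected wells without compound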
RGS16-Gao HTS: regulators of human RGS16-Galphao interaction | bead-based flow cytometry RGS16-Galphao binding, fluorescence; actives lie on both sides | binding response (% of control), % at 10 µM | 220,000 tested, 0.38% active | AID 1441;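 active = below 25% or above 175%, edge rows of some plates excepted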;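 note: Galphao activated by GDP with aluminum fluoride before binding; 100% = wells without compound and 0% = beads without RGS; some results beyond the cut were filed as inactive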
INS promoter inh: TRM-6 insulin promoter activity inhibition | TRM-6 cells (human fetal islet line), insulin promoter-eGFP reporter, imaging; reporter expression induced with tamoxifen | inhibition, % at 2 µM | 130,000 tested, 0.9% active | AID 1273;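 active = inhibition above the mean plus 3 SD, with well images judged a real hit on visual review, cut at about 60% in these data, passing the limit was not always enough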
INS promoter inh cell count: further read-out of INS promoter inh, marked with its call; normalized cell count, %; measured here: cell count, toxicity; reference of the scale not given here;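 cells exposed to compound for 48 h; stained nuclei by imaging scaled within each plate; lower means fewer cells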
HSV augment primary fold: recorded beside HSV augment, whose call it bears; fold increase; compound at 10 µM; measured here: primary screen fold increase 10 uM; tested in PC3 cells;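 GFP signal in the first replicate; 1 = infected wells without compound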
Numbers without * were called inactive. This is a random part of the collection. Share with any hit: about 1.3%.

A first look:
Screening Cc1ccc(S(=O)(=O)NCCCCCC(=O)Nc2nccs2)cc1 returned GALR2 agonist -0.6, PKD1 inh -11, HSV augment inactive, RGS16-Gao HTS 75, INS promoter inh -71, INS promoter inh cell count 79 and HSV augment primary fold 1.
For NNC(=O)c1cccnc1Oc1ccccc1 the results were HSV augment inactive, RGS16-Gao HTS 101 and HSV augment primary fold 0.89.
Oc1ccc(Br)cc1-c1nc2cnccn2c1NC1CCCCC1 was read as GALR2 agonist -1.9, PKD1 inh -1, HSV augment inactive, RGS16-Gao HTS 106, INS promoter inh 32, INS promoter inh cell count 116 and HSV augment primary fold 0.86.
`Cc1c(C(=O)NCc2ccccc2)cnn1-c1ccccc1` gave GALR2 agonist -0.8, PKD1 inh -2, HSV augment inactive, RGS16-Gao HTS 103, INS promoter inh -24, INS promoter inh cell count 89 and HSV augment primary fold 0.96.
For COc1cccc(-c2nc3n(n2)C(c2ccc4c(c2)OCO4)C(C(N)=O)=C(C)N3)c1 (stereo not given) the results were GALR2 agonist -2.6, PKD1 inh -2, HSV augment inactive, RGS16-Gao HTS 101, INS promoter inh 21, INS promoter inh cell count 88 and HSV augment primary fold 0.8.
For CN1CC(=O)N(CC(=O)NCCc2ccc(F)cc2)c2ccccc2C1=O the results were GALR2 agonist -5.0, PKD1 inh 3, HSV augment inactive, RGS16-Gao HTS 105, INS promoter inh -28, INS promoter inh cell count 137 and HSV augment primary fold 0.59.
Screening COC1=C(Nc2ccccc2OC)C(=O)c2ccccc2C1=O returned HSV augment inactive, RGS16-Gao HTS 97 and HSV augment primary fold 0.85.
Screening Cc1ccccc1-n1c(SCc2c(C)noc2C)nnc1-c1c[nH]c2ccccc12 returned GALR2 agonist -2.5, PKD1 inh -7, HSV augment inactive, RGS16-Gao HTS 102, INS promoter inh -3, INS promoter inh cell count 96 and HSV augment primary fold 0.94.

The whole of this part, previewed entries included:
Screening Cc1ccc(S(=O)(=O)NCCCCCC(=O)Nc2nccs2)cc1 returned GALR2 agonist -0.6, PKD1 inh -11, HSV augment inactive, RGS16-Gao HTS 75, INS promoter inh -71, INS promoter inh cell count 79 and HSV augment primary fold 1.
For NNC(=O)c1cccnc1Oc1ccccc1 the results were HSV augment inactive, RGS16-Gao HTS 101 and HSV augment primary fold 0.89.
Oc1ccc(Br)cc1-c1nc2cnccn2c1NC1CCCCC1 was read as GALR2 agonist -1.9, PKD1 inh -1, HSV augment inactive, RGS16-Gao HTS 106, INS promoter inh 32, INS promoter inh cell count 116 and HSV augment primary fold 0.86.
`Cc1c(C(=O)NCc2ccccc2)cnn1-c1ccccc1` gave GALR2 agonist -0.8, PKD1 inh -2, HSV augment inactive, RGS16-Gao HTS 103, INS promoter inh -24, INS promoter inh cell count 89 and HSV augment primary fold 0.96.
For COc1cccc(-c2nc3n(n2)C(c2ccc4c(c2)OCO4)C(C(N)=O)=C(C)N3)c1 (stereo not given) the results were GALR2 agonist -2.6, PKD1 inh -2, HSV augment inactive, RGS16-Gao HTS 101, INS promoter inh 21, INS promoter inh cell count 88 and HSV augment primary fold 0.8.
For CN1CC(=O)N(CC(=O)NCCc2ccc(F)cc2)c2ccccc2C1=O the results were GALR2 agonist -5.0, PKD1 inh 3, HSV augment inactive, RGS16-Gao HTS 105, INS promoter inh -28, INS promoter inh cell count 137 and HSV augment primary fold 0.59.
Screening COC1=C(Nc2ccccc2OC)C(=O)c2ccccc2C1=O returned HSV augment inactive, RGS16-Gao HTS 97 and HSV augment primary fold 0.85.
Screening Cc1ccccc1-n1c(SCc2c(C)noc2C)nnc1-c1c[nH]c2ccccc12 returned GALR2 agonist -2.5, PKD1 inh -7, HSV augment inactive, RGS16-Gao HTS 102, INS promoter inh -3, INS promoter inh cell count 96 and HSV augment primary fold 0.94.
`COc1cccc(C(=O)Nc2ccc(S(=O)(=O)Nc3onc(C)c3C)cc2)c1` gave GALR2 agonist -2.5, PKD1 inh -1, HSV augment inactive, RGS16-Gao HTS 73, INS promoter inh -11, INS promoter inh cell count 125 and HSV augment primary fold 1.
`Cc1ccc(/C=N/N2CCN(c3ccc(Cl)cc3)CC2)o1` gave GALR2 agonist -4.5, PKD1 inh -7, HSV augment inactive, RGS16-Gao HTS 102, INS promoter inh 7, INS promoter inh cell count 122 and HSV augment primary fold 1.
Screening CCOC(=O)c1sc(NC(=O)CSc2nnc(C(C)C)n2C)nc1C returned GALR2 agonist -2.6, PKD1 inh -14, HSV augment inactive, RGS16-Gao HTS 97, INS promoter inh 41, INS promoter inh cell count 87 and HSV augment primary fold 0.94.
Screening O=C(c1ccc(Cl)cc1)C1CCN(C(=O)C2CC2)CC1 returned GALR2 agonist -1.7, PKD1 inh 3, HSV augment inactive, RGS16-Gao HTS 105, INS promoter inh -22, INS promoter inh cell count 48 and HSV augment primary fold 0.78.
`COCc1ccc(C(=O)N2CCc3c([nH]c4ccccc34)C2c2ccccn2)s1` (stereo not given) gave PKD1 inh 0, HSV augment inactive, RGS16-Gao HTS 100 and HSV augment primary fold 0.83.
Cc1cccc(C)c1N1CCN(C(=O)Nc2ccc3c(c2)OCCO3)CC1 was read as GALR2 agonist -2.3, PKD1 inh -2, HSV augment inactive, RGS16-Gao HTS 98, INS promoter inh 19, INS promoter inh cell count 148 and HSV augment primary fold 1.
`Cc1cccc(NCCC(=O)c2ccc(Br)cc2)c1` gave GALR2 agonist -0.4, PKD1 inh 20, HSV augment inactive, RGS16-Gao HTS 113 and HSV augment primary fold 0.68.
`CC1=CC(C)(C)N2C(=O)C3(C(C#N)=C(N)OC4=C3C(=O)CC(C)(C)C4)c3cccc1c32` (stereo not given) gave GALR2 agonist -1.2, PKD1 inh -1, HSV augment inactive, RGS16-Gao HTS 105 and HSV augment primary fold 0.84.
For CC1(C)CC(=O)C2=C(C1)Nc1ccccc1NC2c1ccc2c(c1)OCO2 (stereo not given) the results were GALR2 agonist -0.9, PKD1 inh 19, HSV augment inactive, RGS16-Gao HTS 97, INS promoter inh -67, INS promoter inh cell count 222 and HSV augment primary fold 1.1.
For CN(CC(=O)N1CCCC1)S(=O)(=O)c1ccc2ccccc2c1 the results were PKD1 inh -2, HSV augment inactive, RGS16-Gao HTS 106, INS promoter inh 0, INS promoter inh cell count 162 and HSV augment primary fold 1.
For CCc1c(C(=O)N/N=C/c2cn[nH]c2-c2ccc(F)cc2)csc1C the results were GALR2 agonist -0.3, PKD1 inh -4, HSV augment inactive, RGS16-Gao HTS 105, INS promoter inh -179, INS promoter inh cell count 89 and HSV augment primary fold 0.91.
For Cc1ccc(N(CC(=O)Nc2ccc3c(c2)OCCO3)S(=O)(=O)c2c(C)n[nH]c2C)cc1 the results were GALR2 agonist -1.2, PKD1 inh -5, HSV augment inactive, RGS16-Gao HTS 105 and HSV augment primary fold 1.1.
Screening CC(OC(=O)C1CSC2(c3ccc(F)cc3)CCC(=O)N12)C(=O)NC(N)=O (stereo not given) returned PKD1 inh 4, HSV augment inactive, RGS16-Gao HTS 98, INS promoter inh 25, INS promoter inh cell count 88 and HSV augment primary fold 0.9.
For CC(=O)c1cccc(NC(=O)CSCc2ccc(Br)cc2)c1 the results were GALR2 agonist -1.7, PKD1 inh -11, HSV augment inactive, RGS16-Gao HTS 101, INS promoter inh -18, INS promoter inh cell count 108 and HSV augment primary fold 0.93.
For O=C(NCCN1CCOCC1)c1cc(Sc2ccccc2Cl)nc2ccccc12 the results were GALR2 agonist -0.8, PKD1 inh -2, HSV augment inactive, RGS16-Gao HTS 108, INS promoter inh -62, INS promoter inh cell count 73 and HSV augment primary fold 1.
For Nn1c(SCc2cc([N+](=O)[O-])cc3c2OCOC3)nnc1-c1cccnc1 the results were PKD1 inh -12, HSV augment inactive, RGS16-Gao HTS 123 and HSV augment primary fold 1.
For CN(C)S(=O)(=O)N1CCC(Oc2ccc(C(=O)NC3CCCCC3)cc2)CC1 the results were PKD1 inh -5, HSV augment inactive, RGS16-Gao HTS 103 and HSV augment primary fold 0.99.
Cc1nc2ncnn2c(C)c1Cc1ccc(Cl)cc1F was read as GALR2 agonist 0.2, PKD1 inh 1, RGS16-Gao HTS 100, INS promoter inh 25 and INS promoter inh cell count 128.
Cc1ccc(-c2csc(NC(=O)CCCc3cccs3)n2)cc1 was read as GALR2 agonist -0.5, PKD1 inh 7, HSV augment inactive, RGS16-Gao HTS 109 and HSV augment primary fold 0.98.
CC1=C(C(=O)Nc2ccccc2F)C(c2ccsc2)C2=C(CC(c3ccccc3)CC2=O)N1 (stereo not given) was read as GALR2 agonist 3.8, PKD1 inh 13, HSV augment inactive, RGS16-Gao HTS 104, INS promoter inh -11, INS promoter inh cell count 80 and HSV augment primary fold 0.86.
`COc1cccc(CN2CCN(C(=O)c3cc(-c4cccnc4)nc4ccc(C)cc34)CC2)c1` gave PKD1 inh -4, HSV augment inactive, RGS16-Gao HTS 95 and HSV augment primary fold 0.85.
O=C(Nc1ccc(Cc2ccncc2)cc1)C1CC1 was read as GALR2 agonist -1.3, PKD1 inh -4, HSV augment inactive, RGS16-Gao HTS 90, INS promoter inh -8, INS promoter inh cell count 95 and HSV augment primary fold 0.84.
Screening CC(/C=C/c1ccccc1)=N/NC(=O)c1nc2nc(C)cc(C)n2n1 returned PKD1 inh -10, HSV augment inactive, RGS16-Gao HTS 99, INS promoter inh 17, INS promoter inh cell count 105 and HSV augment primary fold 0.84.
For CCN(CC)CCCNC(=O)c1cc(-c2cccc(Cl)c2)on1 the results were GALR2 agonist -5.2, PKD1 inh -8, HSV augment inactive, RGS16-Gao HTS 106 and HSV augment primary fold 0.9.
For CCn1c(SCC(=O)Nc2sc3c(c2C(N)=O)CCC(C)C3)nnc1-c1ccco1 (stereo not given) the results were GALR2 agonist -2.3, PKD1 inh -6, HSV augment inactive, RGS16-Gao HTS 102, INS promoter inh 0, INS promoter inh cell count 101 and HSV augment primary fold 1.1.
Screening Nc1c(N)c2ccccc2oc1=O returned GALR2 agonist -2.1, PKD1 inh -1, HSV augment inactive, RGS16-Gao HTS 102, INS promoter inh 27, INS promoter inh cell count 166 and HSV augment primary fold 0.92.
Screening COc1nonc1NC(=O)CSc1nc2ccccc2[nH]1 returned GALR2 agonist 0.0, PKD1 inh -6, HSV augment inactive, RGS16-Gao HTS 100 and HSV augment primary fold 1.1.
For CCN1C(=O)N[C@@H](c2ccc(Br)cc2)C(C(=O)OC)=C1C the results were GALR2 agonist -0.6, PKD1 inh 3, HSV augment inactive, RGS16-Gao HTS 72, INS promoter inh 65*, INS promoter inh cell count 61* and HSV augment primary fold 0.75.
For N#CCSc1nnc(SCC#N)s1 the results were HSV augment inactive, RGS16-Gao HTS 95 and HSV augment primary fold 0.97.
NC(=O)N1CCC2(CC1)NC(=O)N(c1ccccc1)N2 was read as PKD1 inh 2, HSV augment inactive, RGS16-Gao HTS 99, INS promoter inh 53, INS promoter inh cell count 83 and HSV augment primary fold 0.87.
`CCSc1nnc(NC(=O)CCc2ccc(OC)cc2)s1` gave GALR2 agonist -0.6, PKD1 inh -3, HSV augment inactive, RGS16-Gao HTS 95, INS promoter inh -53, INS promoter inh cell count 105 and HSV augment primary fold 0.96.
For CCCOc1ccc(/C=N/NC(=O)CN(c2ccc(OCC)cc2)S(C)(=O)=O)cc1 the results were HSV augment inactive, RGS16-Gao HTS 105 and HSV augment primary fold 1.1.
Screening CCN(CC)C(=O)C(=O)c1cccn1-c1cccc(-n2cccc2C(=O)C(=O)N(CC)CC)c1C#N returned GALR2 agonist -1.0, PKD1 inh -4, RGS16-Gao HTS 255, INS promoter inh -29 and INS promoter inh cell count 102.
For Nc1c(C(=O)Nc2ccccc2F)sc2nc(-c3cccnc3)ccc12 the results were HSV augment inactive, RGS16-Gao HTS 101 and HSV augment primary fold 1.1.
For Cc1ccn2cc(CCNC(=O)C3CCCCC3)nc2c1 the results were GALR2 agonist -1.6, PKD1 inh -7, HSV augment inactive, RGS16-Gao HTS 154 and HSV augment primary fold 0.69.
`OCC1(Cc2ccccc2C(F)(F)F)CCN(Cc2ccc3c(c2)CCO3)CC1` gave PKD1 inh 2, HSV augment inactive, RGS16-Gao HTS 104 and HSV augment primary fold 0.83.
`COc1ccc(C(=O)NNC(=O)CSc2nnc(C)n2C)cc1` gave PKD1 inh -6, HSV augment inactive, RGS16-Gao HTS 107 and HSV augment primary fold 1.
For Cc1ccc(C)c(C(=O)Nc2cc(C)nn2-c2nc(C)cc(C)n2)c1 the results were PKD1 inh -1, HSV augment inactive, RGS16-Gao HTS 102 and HSV augment primary fold 0.78.
For CC1CCCN(CC(O)COc2ccc3c(c2)OCO3)C1 (stereo not given) the results were PKD1 inh -1, HSV augment inactive, RGS16-Gao HTS 105, INS promoter inh -57, INS promoter inh cell count 188 and HSV augment primary fold 1.1.
